Mtb MbtI inh = blocks the Mycobacterium tuberculosis siderophore enzyme MbtI. P9WFX0. purified MbtI enzyme, fluorescence intensity read-out. inhibition, %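 (about 17 µg/mL by stock and volumes)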. hit rate 0.89% among 100,000;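 active = above 50% in both replicates, above 80% if mildly self-fluorescent; inactive = the rest, strongly fluorescent compounds included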;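 also: 0% = mean of negative and 100% = mean of positive controls; one replicate is shown; some compounds called inactive have numbers as strong as hits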
MenB inh = Mtb MenB enzyme inhibition; P9WNP5; inhibition, %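 (about 12 µg/mL by stock and volumes)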; hit rate 0.43% among 100,000; MenB enzyme assay, absorbance read-out; some hits fall short of the stated cut;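 active = mean of two replicates above 30%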;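 also: 0% = no compound and 100% = wells with inactive enzyme; the first replicate is given; strong numbers were not always called active; inactives centre near -10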
Target sequence (P9WNP5 whole entry, looked up): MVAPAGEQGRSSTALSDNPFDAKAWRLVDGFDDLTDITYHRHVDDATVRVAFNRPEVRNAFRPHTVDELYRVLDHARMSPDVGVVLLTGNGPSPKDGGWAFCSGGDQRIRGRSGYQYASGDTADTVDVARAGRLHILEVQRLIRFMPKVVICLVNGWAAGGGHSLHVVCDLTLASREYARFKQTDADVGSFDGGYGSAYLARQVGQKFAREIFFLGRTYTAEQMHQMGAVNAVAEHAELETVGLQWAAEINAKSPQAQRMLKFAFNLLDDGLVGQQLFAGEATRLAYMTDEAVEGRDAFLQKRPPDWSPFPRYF
Polio RdRp inh = inhibitors of poliovirus RNA polymerase binding and polymerization | P03300 | poliovirus polymerase elongation, fluorescence polarization; stronger effect = lower value | % elongation, % (compound at 16.7 µg/mL) | hit rate 0.66% among 150,000 | AID 588519; in the data active = % elongation below about 90%; also: some results filed as inactive read as strong as hits
Target sequence (P03300 1749-2209 limits assumed): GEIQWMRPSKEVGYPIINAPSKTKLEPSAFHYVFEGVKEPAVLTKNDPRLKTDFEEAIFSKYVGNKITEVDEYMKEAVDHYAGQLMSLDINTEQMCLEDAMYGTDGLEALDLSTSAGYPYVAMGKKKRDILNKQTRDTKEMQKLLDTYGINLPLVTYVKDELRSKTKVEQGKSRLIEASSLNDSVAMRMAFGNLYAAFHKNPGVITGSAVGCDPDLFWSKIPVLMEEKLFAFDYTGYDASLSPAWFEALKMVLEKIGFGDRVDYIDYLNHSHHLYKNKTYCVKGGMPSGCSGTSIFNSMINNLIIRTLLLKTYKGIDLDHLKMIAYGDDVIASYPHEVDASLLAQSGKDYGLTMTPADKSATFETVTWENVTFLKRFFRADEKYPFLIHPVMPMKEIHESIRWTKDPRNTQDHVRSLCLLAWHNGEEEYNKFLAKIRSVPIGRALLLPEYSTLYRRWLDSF
Polio RdRp inh intensity = also measured in Polio RdRp inh; calls as there; % elongation; measured here: total intensity read-out; formula for this scale not given here;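 total fluorescence in place of polarization; lower means less elongation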
An asterisk follows results filed as active.

What do the screens show for `CCC(=O)Nc1nc2cc(Cl)c(C)cc2s1`?
Mtb MbtI inh: -6; MenB inh: -18; Polio RdRp inh: 103; Polio RdRp inh intensity: 101

How did CN(C(=O)COC(=O)C1(c2ccc(F)cc2)CCCC1)c1ccccc1 do in these assays?
Mtb MbtI inh: -7; Polio RdRp inh: 102; Polio RdRp inh intensity: 106

Results for O=C(C1CC1)N1CCc2cc(S(=O)(=O)NCc3ccccc3)ccc21 ?
Mtb MbtI inh: -6; MenB inh: -14; Polio RdRp inh: 102; Polio RdRp inh intensity: 107

What do the screens show for `CCN(CCO)C(=S)Nc1ccccc1C`?
Mtb MbtI inh: 1; MenB inh: -8; Polio RdRp inh: 101; Polio RdRp inh intensity: 95

Results for CCN1C(=O)CC(OC(C)=O)C1=O (stereo unspecified) ?
Mtb MbtI inh: 66*; MenB inh: -17; Polio RdRp inh: 103; Polio RdRp inh intensity: 110

What do the screens show for `CC(C)(C)NC(=O)C1CC(=O)OC1(C)C` (stereo unspecified)?
Mtb MbtI inh: -6; MenB inh: -9; Polio RdRp inh: 100; Polio RdRp inh intensity: 100

Results for Cc1ccc(S(=O)(=O)N(CC(O)CN2CCCCC2)c2ccccc2)cc1 (stereo unspecified) ?
Mtb MbtI inh: -7; MenB inh: -16; Polio RdRp inh: 99; Polio RdRp inh intensity: 100

How did C=C(C)c1cccc(C(C)(C)NC(=O)N2CCCC2)c1 do in these assays?
Mtb MbtI inh: 5; MenB inh: -26; Polio RdRp inh: 102; Polio RdRp inh intensity: 101

How did O=C1C2C(c3ccccc3)C=CC(c3ccccc3)C2C(=O)N1c1nccs1 (stereo unspecified) do in these assays?
Mtb MbtI inh: -1; MenB inh: -23; Polio RdRp inh: 101; Polio RdRp inh intensity: 102

How did CCOC(=O)Nc1ccc2c(CNCC(C)C)cc(=O)oc2c1 do in these assays?
Mtb MbtI inh: 105; MenB inh: -2; Polio RdRp inh: 98; Polio RdRp inh intensity: 97

Results for CC1(C)CC(=O)C2=C(C1)Nc1ccccc1N(C1OC(=O)c3ccccc31)C2c1ccco1 (stereo unspecified) ?
Mtb MbtI inh: 40; MenB inh: -17; Polio RdRp inh: 100; Polio RdRp inh intensity: 103

How did O=C(Cc1ccsc1)OCN1C(=O)c2ccccc2C1=O do in these assays?
Mtb MbtI inh: -4; MenB inh: 2; Polio RdRp inh: 98; Polio RdRp inh intensity: 103

Sorted by heavy-atom count (lowest first): ten of the compounds above.
Results for CCN1C(=O)CC(OC(C)=O)C1=O (stereo unspecified) ?
Mtb MbtI inh: 66*; MenB inh: -17; Polio RdRp inh: 103; Polio RdRp inh intensity: 110

What do the screens show for `CCN(CCO)C(=S)Nc1ccccc1C`?
Mtb MbtI inh: 1; MenB inh: -8; Polio RdRp inh: 101; Polio RdRp inh intensity: 95

How did C=C(C)c1cccc(C(C)(C)NC(=O)N2CCCC2)c1 do in these assays?
Mtb MbtI inh: 5; MenB inh: -26; Polio RdRp inh: 102; Polio RdRp inh intensity: 101

How did O=C(Cc1ccsc1)OCN1C(=O)c2ccccc2C1=O do in these assays?
Mtb MbtI inh: -4; MenB inh: 2; Polio RdRp inh: 98; Polio RdRp inh intensity: 103

How did CCOC(=O)Nc1ccc2c(CNCC(C)C)cc(=O)oc2c1 do in these assays?
Mtb MbtI inh: 105; MenB inh: -2; Polio RdRp inh: 98; Polio RdRp inh intensity: 97

Results for O=C(C1CC1)N1CCc2cc(S(=O)(=O)NCc3ccccc3)ccc21 ?
Mtb MbtI inh: -6; MenB inh: -14; Polio RdRp inh: 102; Polio RdRp inh intensity: 107

How did CN(C(=O)COC(=O)C1(c2ccc(F)cc2)CCCC1)c1ccccc1 do in these assays?
Mtb MbtI inh: -7; Polio RdRp inh: 102; Polio RdRp inh intensity: 106

Results for Cc1ccc(S(=O)(=O)N(CC(O)CN2CCCCC2)c2ccccc2)cc1 (stereo unspecified) ?
Mtb MbtI inh: -7; MenB inh: -16; Polio RdRp inh: 99; Polio RdRp inh intensity: 100

How did O=C1C2C(c3ccccc3)C=CC(c3ccccc3)C2C(=O)N1c1nccs1 (stereo unspecified) do in these assays?
Mtb MbtI inh: -1; MenB inh: -23; Polio RdRp inh: 101; Polio RdRp inh intensity: 102

Results for CC1(C)CC(=O)C2=C(C1)Nc1ccccc1N(C1OC(=O)c3ccccc31)C2c1ccco1 (stereo unspecified) ?
Mtb MbtI inh: 40; MenB inh: -17; Polio RdRp inh: 100; Polio RdRp inh intensity: 103

Later entries.
Results for COC(=O)c1ccc(Sc2ccc(F)cc2)c(N)c1 ?
Mtb MbtI inh: 118; MenB inh: 1; Polio RdRp inh: 97; Polio RdRp inh intensity: 98

What do the screens show for `O=C(OCCCCN1C(=O)c2ccccc2C1=O)c1ccc(S(=O)(=O)N2CCCC2)cc1`?
Mtb MbtI inh: 5; MenB inh: -13; Polio RdRp inh: 106; Polio RdRp inh intensity: 111

What do the screens show for `CCOc1cc(S(=O)(=O)N(CC)CC)c(OCC)cc1-n1cnnn1`?
Mtb MbtI inh: 90; MenB inh: -8; Polio RdRp inh: 102; Polio RdRp inh intensity: 104

What do the screens show for `CN(/N=C/c1ncc(C(F)(F)F)cc1Cl)C(=O)c1ccc(Cl)cc1`?
Mtb MbtI inh: -2; MenB inh: 2; Polio RdRp inh: 102; Polio RdRp inh intensity: 95

Results for O=C(NC(O)C(=O)c1ccccc1)c1ccc(F)cc1 (stereo unspecified) ?
Mtb MbtI inh: -2; MenB inh: 1; Polio RdRp inh: 104; Polio RdRp inh intensity: 107

What do the screens show for `CCOC(=O)c1cnc(Nc2nc3ccccc3s2)nc1CSc1ncccn1`?
Mtb MbtI inh: -12; MenB inh: 9; Polio RdRp inh: 105; Polio RdRp inh intensity: 109

Results for CCn1c(SCCC(=O)Nc2ccccc2)nnc1-c1ccc(OC)cc1 ?
Mtb MbtI inh: -2; MenB inh: -21; Polio RdRp inh: 99; Polio RdRp inh intensity: 102

How did Cc1ccc(C)c(CN2CCNC2=O)c1 do in these assays?
Mtb MbtI inh: -16; MenB inh: -21; Polio RdRp inh: 102; Polio RdRp inh intensity: 101

What do the screens show for `CCOCCCn1c(SCc2ccccc2)nnc1-c1ccncc1`?
Mtb MbtI inh: -13; MenB inh: -30; Polio RdRp inh: 104; Polio RdRp inh intensity: 95

What do the screens show for `O=C(Nc1c2c(nn1-c1cccc(Cl)c1)CS(=O)(=O)C2)c1ccc(S(=O)(=O)N2CCCC2)cc1`?
Mtb MbtI inh: 21; MenB inh: -19; Polio RdRp inh: 102; Polio RdRp inh intensity: 102

Results for Cc1nsc(N)c1C(=O)OCC(=O)N1CCN(S(=O)(=O)c2ccc(Cl)cc2)CC1 ?
Mtb MbtI inh: -6; MenB inh: -17; Polio RdRp inh: 106; Polio RdRp inh intensity: 109

What do the screens show for `Cc1cc(NC(=O)COC(=O)CCc2c[nH]c3ccccc23)no1`?
Mtb MbtI inh: -16; MenB inh: -21; Polio RdRp inh: 106; Polio RdRp inh intensity: 107

Results for COc1ccccc1CNC(=O)[C@@H]1CC(O)CN1C(=O)C12CC3CC(CC(C3)C1)C2 (stereo partly specified) ?
Mtb MbtI inh: -10; MenB inh: -23; Polio RdRp inh: 107; Polio RdRp inh intensity: 109

What do the screens show for `O=S(=O)(Nc1nc2ccccc2nc1NC1CCCC1)c1ccc(Cl)s1`?
Mtb MbtI inh: -37; MenB inh: -7; Polio RdRp inh: 93; Polio RdRp inh intensity: 129

What do the screens show for `C=C(C)Cn1c(=S)n(Cc2ccccc2)c2ccccc21`?
Mtb MbtI inh: -1; MenB inh: -38; Polio RdRp inh: 108; Polio RdRp inh intensity: 97

How did CCCCOc1ccc(OCCNC(=O)C2CCC(=O)N2)cc1 (stereo unspecified) do in these assays?
Mtb MbtI inh: -29; MenB inh: -11; Polio RdRp inh: 102; Polio RdRp inh intensity: 100

What do the screens show for `Brc1ccc(-c2nnc3n2-c2ccccc2CC3)cc1`?
Mtb MbtI inh: -2; MenB inh: -7; Polio RdRp inh: 104; Polio RdRp inh intensity: 109

Results for O=C(CC1OC(=O)c2ccccc21)Nc1cccc2cccnc12 (stereo unspecified) ?
Mtb MbtI inh: -2; MenB inh: 3; Polio RdRp inh: 122; Polio RdRp inh intensity: 132

How did CN(Cc1ccco1)C(=O)COc1cccc2c1OC(C)(C)C2 do in these assays?
Mtb MbtI inh: -6; MenB inh: -10; Polio RdRp inh: 99; Polio RdRp inh intensity: 104

Results for N#Cc1c(N)nc(SCc2ccccc2)c(C#N)c1-c1cccs1 ?
Mtb MbtI inh: 102; MenB inh: -31; Polio RdRp inh: 100; Polio RdRp inh intensity: 102

Results for C=CCn1c(Cc2ccc(OC)cc2)nnc1SC(C)C(=O)Nc1ccc2c(c1)OCO2 (stereo unspecified) ?
Mtb MbtI inh: -4; MenB inh: 10; Polio RdRp inh: 101; Polio RdRp inh intensity: 101

How did Cc1ccc2nc(-c3ccccn3)cc(C(=O)O)c2c1 do in these assays?
Mtb MbtI inh: -7; MenB inh: -40

What do the screens show for `CCOc1ccc(NC(=O)C2CC(=O)NC(N3CCCCC3)=N2)cc1` (stereo unspecified)?
Mtb MbtI inh: 0; MenB inh: 7; Polio RdRp inh: 102; Polio RdRp inh intensity: 104

What do the screens show for `COc1ccc(-n2c(=O)/c(=C\c3ccccn3)s/c2=C(/C#N)C(=O)NC2CC2)cc1`?
Mtb MbtI inh: -2; MenB inh: -18; Polio RdRp inh: 109; Polio RdRp inh intensity: 120

How did Cc1ccc2c(c1)c1c3n2CCN(C2CCO2)C3CCC1 (stereo unspecified) do in these assays?
MenB inh: -9; Polio RdRp inh: 106; Polio RdRp inh intensity: 105

How did Nc1nc(CSc2nnc(-c3cccc(Br)c3)n2C2CCCCC2)cs1 do in these assays?
Mtb MbtI inh: 2; MenB inh: -2; Polio RdRp inh: 102; Polio RdRp inh intensity: 100

Results for CCOc1ccccc1C(=O)NCC(=O)N(C)Cc1cccnc1 ?
Mtb MbtI inh: -1; MenB inh: -10; Polio RdRp inh: 96; Polio RdRp inh intensity: 100

What do the screens show for `Nc1ccccc1OC(=O)C[n+]1ccccc1`?
Mtb MbtI inh: -6; MenB inh: -36; Polio RdRp inh: 103; Polio RdRp inh intensity: 103

How did O=C(CSc1n[nH]c(=O)n1Cc1ccco1)c1ccc2c(c1)OCCO2 do in these assays?
Mtb MbtI inh: -6; MenB inh: -1; Polio RdRp inh: 103; Polio RdRp inh intensity: 102

What do the screens show for `Cc1ccc2nc(C(O)C(O)c3nc4ccc(C)cc4[nH]3)[nH]c2c1` (stereo unspecified)?
Mtb MbtI inh: 1; MenB inh: -1; Polio RdRp inh: 97; Polio RdRp inh intensity: 87

How did CCS(=O)(=O)N1CCN(C2CCCCCCC2)CC1 do in these assays?
Mtb MbtI inh: -2; MenB inh: -20; Polio RdRp inh: 103; Polio RdRp inh intensity: 101

Results for O=C(COC(=O)C12CC3CC(CC(C3)C1)C2)c1ccc(F)cc1 ?
Mtb MbtI inh: -10; Polio RdRp inh: 104; Polio RdRp inh intensity: 106

What do the screens show for `N#Cc1ccc2ccn(CC(N)=O)c2c1`?
Mtb MbtI inh: 90; MenB inh: -9; Polio RdRp inh: 101; Polio RdRp inh intensity: 112

How did Cc1ccc(C)c(NC(=O)C(C)n2sc3ccccc3c2=O)c1 (stereo unspecified) do in these assays?
Mtb MbtI inh: 6; MenB inh: 8; Polio RdRp inh: 103; Polio RdRp inh intensity: 107

Results for CN(C)N1C(=O)CC(Nc2ccc(F)cc2)C1=O (stereo unspecified) ?
Mtb MbtI inh: -4; MenB inh: -14; Polio RdRp inh: 99; Polio RdRp inh intensity: 101

How did CSc1cccc(NC(=O)C2CCN(S(=O)(=O)c3cnc[nH]3)CC2)c1 do in these assays?
Mtb MbtI inh: 2; MenB inh: -33; Polio RdRp inh: 105; Polio RdRp inh intensity: 99

What do the screens show for `CC(C)CN(C(=O)COc1ccc(F)cc1)C1CCS(=O)(=O)C1` (stereo unspecified)?
Mtb MbtI inh: -13; MenB inh: -4

What do the screens show for `N=c1oc2ccc3ccccc3c2cc1C(=O)Nc1ccccc1`?
Mtb MbtI inh: 0; MenB inh: -27; Polio RdRp inh: 103; Polio RdRp inh intensity: 109

Results for Cc1c(N2CCCC2)cc2c(c1-n1cccc1)C(C)(C)CC2(C)C ?
Mtb MbtI inh: -12; MenB inh: -18; Polio RdRp inh: 106; Polio RdRp inh intensity: 107

How did CN(C)CN1C(=O)c2ccccc2C1=O do in these assays?
Mtb MbtI inh: -8; MenB inh: 9; Polio RdRp inh: 103; Polio RdRp inh intensity: 96

How did CC1(C)CC(=O)c2sc(NC(=O)/C=C/c3ccccc3)nc2C1 do in these assays?
Mtb MbtI inh: 2; Polio RdRp inh: 105; Polio RdRp inh intensity: 101

What do the screens show for `COc1cc(Cl)c(C)cc1NC(=O)c1cnc(C)cn1`?
Mtb MbtI inh: -12; Polio RdRp inh: 101; Polio RdRp inh intensity: 98

How did C=CCN1C(=O)/C(=C/C=c2\c3cccc4cccc(c43)n2CC)SC1=S do in these assays?
Mtb MbtI inh: 18; MenB inh: 12; Polio RdRp inh: 98; Polio RdRp inh intensity: 100

Results for CCNc1oc(-c2ccc(F)cc2)nc1S(=O)(=O)c1ccc(Cl)cc1 ?
Mtb MbtI inh: 9; MenB inh: -12; Polio RdRp inh: 98; Polio RdRp inh intensity: 103

How did CCOC(=O)c1cc(-c2ccc(OC)c(S(=O)(=O)N(C)c3ccc(OCC)cc3)c2)on1 do in these assays?
Mtb MbtI inh: -10; MenB inh: -28; Polio RdRp inh: 100; Polio RdRp inh intensity: 103
